Bioassay records from PubChem.
BJeLR viability: BJeLR cell viability loss | BJeLR (HRASV12) viability, CellTiter-Glo ATP luminescence, 48 h; reference of the scale not given here | inhibition, % (concentration not given with the values) | 0.17% of 300,000 active;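 active = replicate mean above 50%; inconclusive = above 50% but judged a plate artefact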;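 also: 50 nL library stock added to about 25 µL; numbers are from one replicate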
Autofluor counter: counter-screen for toxin protease inhibitors: compound fluorescence. fluorescence intensity (no concentration beside the values). compound autofluorescence counterscreen, microsphere flow cytometry; active compounds read high. 3.1% of 360,000 active;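 active = at least 3 SD above the mean of all compounds, about 16000 in these data; inconclusive = too few beads counted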;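 also: 100 nL of 1 mM stock went into each well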
Sa RN4220 lethal: S. aureus RN4220 growth inhibition; AID 1259311; inhibition, % (test concentration not listed); 0.33% of 330,000 active; OD600, 16 h;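 active = z-score of -3 or lower and OD600 up to 0.18 on both plates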;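 also: plate controls were untreated cells for no effect and reference antibiotic for full effect; stock transfer was 100 nL into about 80 µL; one replicate is shown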
Mtb hypoxia inh: reduces hypoxia-regulated biosensor signal in M. tuberculosis. AID 1159583. 0.1% of 300,000 active. fluorescence inhibition, % (test concentration not listed). M. tuberculosis hypoxia-regulated fluorescent reporter, fluorescence;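 active = 35 to 45% if threefold the growth effect, above 45% if 1.5-fold the growth effect; inactive = the rest, general growth blockers included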;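 also: wells of about 50 µL received 100 nL stock; 0% = vehicle wells and 100% = reference inhibitor wells; whole bacteria with a GFP reporter of the hypoxia response; strong numbers were not always called active; many hits fall short of the cut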
ugtP null kill: kills S. aureus RN4220 lacking UgtP; 0.54% of 330,000 active; growth inhibition, % (test concentration not listed); S. aureus RN4220 ugtP deletion, OD600 growth, 16 h; some inactives read as strong as hits;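 active = z-score under -3 and OD600 up to 0.15 on both plates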;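 also: plate controls were untreated wells for no effect and antibiotic for full effect; wells of about 80 µL received 100 nL stock; the first replicate is given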
PrP 5UTR inh: inhibition of PrP 5' UTR reporter expression; inhibition, % (concentration not given with the values); 0.35% of 340,000 active; cell-based PrP 5' UTR mRNA reporter, plate reader; AID 488862;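 active = every replicate at 50% or more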;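 also: 0 = median of the neutral control wells; tested in H4 reporter cells; numbers are from one replicate; inactives centre near -14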
Mtb hypoxia inh growth: further read-out of Mtb hypoxia inh, marked with its call; growth inhibition, %; measured here: M. tuberculosis growth (absorbance);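 0% = vehicle and 100% = reference antibiotic; read after six days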
The depositor's hits bear a star; ? = inconclusive; · = no result given; & = joins results of further samples.

SMILES | BJeLR viability | Autofluor counter | Sa RN4220 lethal | Mtb hypoxia inh | Mtb hypoxia inh growth | ugtP null kill | PrP 5UTR inh
Cc1cc(C)n(N=Cc2c(O)ccc3ccccc23)c(=O)c1C(N)=O | · | · | 4.0 | 17.2 | 10.3 | 5.0 | ·
CCOC(=O)C1=C(N2CCCCC2)c2cc3c(n2C1=O)CCCC3 | -2.9 | 2224 | -5.8 | · | · | -8.5 | 1.4
O=C(NCc1cccnc1)c1cccnc1Sc1ccc(Cl)cc1 | 7.0 | 16925* | 3.8 | 5.6 | 11.0 | 5.5 | -36.2
Cc1nn(CC2CC2)c(=O)n1-c1ccccc1F | -8.7 | 3261 | 7.8 | -4.8 | -3.5 | 5.6 | 0.9
Cc1ccccc1Cn1ccc(-c2ccc(Cl)cc2)c(C#N)c1=O | 5.7 | 23457* | 4.3 | 12.6 | 2.0 | -2.3 | -8.4
COc1cc(C(=O)NCc2nnc(SCC(=O)N3CCCCC3)o2)cc(OC)c1OC | -11.4 | ? | 1.4 | · | · | 4.9 | 4.6
Cc1ccnc(NC(=O)c2cccc([N+](=O)[O-])c2C)c1 | 4.1 | 2175 | -0.4 | 4.0 | 4.7 | -12.3 | -5.1
COCCn1c(=O)[nH]c2cc(C(=O)N3CCN(c4ccccc4F)CC3)ccc2c1=O | -4.5 | 3818 | -0.3 | 5.3 | -4.6 | 1.0 | -19.6
CCCCCCSc1ccc([C@H]2N[C@@](CC(C)C)(C(=O)OC)[C@H]3C(=O)N(C)C(=O)[C@@H]23)cc1 | 8.7 | 2964 | -20.9 | 9.0 | 2.8 | -1.1 | -12.8
CCOC(=O)NN=C(C)/C=C/c1ccco1 | · | · | 0.0 | 14.6 | 1.3 | -5.3 | ·
CCOc1ccc2[nH]c(=O)c(CN(Cc3ccc(C)cc3)C(=O)N3CCCC3)cc2c1 | -0.3 | 4341 | 6.0 | 2.1 | -0.8 | -1.1 | 0.2
C=CCSc1nc(Oc2ccccc2)c2sccc2n1 | -3.9 | 5697 | -4.2 | · | · | 55.1 | 2.2
Cc1cccc(N(CC(=O)Nc2ccc(F)cc2)S(C)(=O)=O)c1 | 13.7 | ? | 3.0 | 21.4 | 2.8 | 6.1 | -19.5
O=C(NN=Cc1ccco1)c1cc(-c2cccc3ccccc23)n[nH]1 | · | · | 6.6 | 23.2 | 12.5 | -5.9 | ·
Cc1ccc(C(CC(=O)NCc2ccco2)c2ccc(OC(C)C)cc2)cc1 (stereo not given) | 0.3 | ? | 0.7 | -6.2 | 5.7 | 33.4 | 4.2&-24.5
C=CCNC(=O)c1ccccc1NS(=O)(=O)c1ccccc1 | 1.7 | 4708 | -5.7 | · | · | -0.3 | -14.4
O=C(Nc1ncc(S(=O)(=O)c2ccc([N+](=O)[O-])cc2)s1)c1ccc2ccccc2c1 | 0.4 | 2197 | 19.4 | 1.9 | 2.2 | -10.0 | 3.8
OC(COc1ccc(OCC(O)CN2CCCCCC2)cc1)CN1CCCCCC1 (stereo not given) | 6.5 | 4384 | -0.9 | · | · | -3.9 | -16.1
Cc1cc(C=C2C(=O)NC(=O)N(c3ccc(F)cc3)C2=O)c(C)n1-c1ccc(C(=O)O)cc1 | · | · | 1.6 | 3.1 | 14.6 | -6.5 | ·
COc1ccc(OC)c(S(=O)(=O)Nc2cccc(C(C)=O)c2)c1 | -1.6 | 5375 | 4.6 | 8.2 | 4.1 | 10.7 | 1.4

Overlap with the part before: two compounds; new compounds follow.
SMILES | BJeLR viability | Autofluor counter | Sa RN4220 lethal | Mtb hypoxia inh | Mtb hypoxia inh growth | ugtP null kill | PrP 5UTR inh
Cc1cc(C=C2C(=O)NC(=O)N(c3ccc(F)cc3)C2=O)c(C)n1-c1ccc(C(=O)O)cc1 | · | · | 1.6 | 3.1 | 14.6 | -6.5 | ·
COc1ccc(OC)c(S(=O)(=O)Nc2cccc(C(C)=O)c2)c1 | -1.6 | 5375 | 4.6 | 8.2 | 4.1 | 10.7 | 1.4
O=C(Nc1nnc(C2=COCCO2)o1)c1ccc(Cc2ccccc2)cc1 | 9.9 | 4606 | -9.5 | -7.6 | 8.1 | 8.9 | -8.1
CCn1c(CC(=O)Nc2ccccc2)nnc1SCc1nc2ccccc2c(=O)[nH]1 | 7.1 | 3952 | -1.9 | -12.2 | -4.0 | -7.5 | -20.9
Cc1nn(C)c(C)c1S(=O)(=O)N(CC(=O)N1CCc2ccccc2C1)c1ccc(C(C)C)cc1 | -7.8 | 5868 | 9.0 | 2.7 | 0.0 | 19.1 | 7.6
O=C(N/C=N/OCc1ccc(Cl)cc1Cl)NOCc1ncc(C(F)(F)F)cc1Cl | 5.4 | 2861 | -19.6 | 12.6 | 12.7 | -35.5 | -77.3
O=C(N/N=C/c1ccc(F)cc1)c1ccc(Br)cc1 | 0.4 | 10295 | · | · | · | · | -21.6
CCOC(=O)/C=c1\s/c(=C\c2ccccc2C)c(=O)n1CC(=O)NCc1ccc2c(c1)OCO2 | -3.7 | 2303 | · | · | · | · | -18.9
COc1ccc(CC(=O)Nc2cccnc2)cc1 | -2.8 | 3395 | 1.6 | 11.2 | 0.8 | 6.3 | -9.5
CCOc1ccccc1NC(=O)CCc1nnc2ccc(N3CCC(C)CC3)nn12 | -2.7 | 4483 | 9.9 | 3.0 | -1.5 | 8.0 | -14.2
COc1ccc(C(CNS(=O)(=O)c2ccccc2)N2CCN(C)CC2)cc1 (stereo not given) | 1.3 | · | 2.5 | 2.9 | -2.0 | 3.4 | -11.0
FCCCOc1ccc(/C=N/OCc2ccc(Cl)cc2)cc1 | 2.4 | 2715 | · | · | · | · | -12.2
O=C(NCc1ccc2c(c1)OCO2)C1CCCN(S(=O)(=O)c2cccc3cccnc23)C1 (stereo not given) | 0.4 | 4364 | 1.2 | · | · | 8.9 | 77.7*
Cc1ccc(S(=O)(=O)CCC(=O)Nc2ccccc2C)cc1 | 5.2 | 3861 | 0.6 | 4.5 | 7.5 | 14.5 | ·
CCOC(=O)c1c(-c2ccc(F)cc2)cn2ccccc12 | 8.6 | 2612 | 2.8 | · | · | 2.2 | -3.6
CCOc1ccc(-n2c(-c3ccco3)n[nH]c2=S)cc1 | 2.3 | 4720 | 1.4 | · | · | 4.0 | -30.1
O=C(CN1C(=O)NC(Cc2c[nH]c3ccccc23)C1=O)Nc1cccc(S(=O)(=O)N2CCCCCC2)c1 (stereo not given) | -14.4 | 1993 | 1.9 | 9.0 | 3.6 | 1.3 | -0.3
COCCNCC(=O)NCC12CC3CC(CC(C3)C1)C2 | -1.0 | 2172 | 6.0 | · | · | -0.9 | -9.9
Cc1c(C(=O)Nc2ccc(Nc3ccccc3)cc2)cccc1[N+](=O)[O-] | -13.2 | 3190 | 3.0 | 1.6 | -14.4 | -6.7 | -28.2
COc1ccc([N+](=O)[O-])cc1/C=N/NC(=O)/C(=C\c1cccs1)NC(=O)c1ccccc1 | 3.0 | 3335 | · | · | · | · | -19.7
Cc1ccc(S(=O)(=O)Oc2ccccc2C=NO)cc1 | · | · | 12.5 | 7.6 | 0.9 | 4.5 | ·
Cc1cccc(N(C)S(=O)(=O)c2cc3c(cc2C)n(C)c(=O)c(=O)n3C)c1 | -5.7 | 6149 | 4.7 | · | · | 15.9 | 2.8
Cc1cc(-c2n[nH]c(=S)n2-c2ccccc2C)cs1 | -3.7 | 2102 | 4.4 | 11.7 | 6.2 | 1.8 | -17.3
Cc1ccc(C(=O)O/N=C/c2ccc3c(c2)OCO3)cc1 | 0.8 | 9914 | · | · | · | · | -14.1
O=C(Nc1c2c(nn1-c1ccccc1)CS(=O)C2)c1ccco1 (stereo not given) | -2.5 | 6059 | 2.5 | 0.1 | -3.6 | 5.5 | -19.0
CCN(CC(=O)NC1CCCC1)S(=O)(=O)c1ccc(F)cc1 | 6.3 | 5664 | 1.6 | 3.6 | 3.9 | 5.3 | -3.2
CCS(=O)(=O)N1Cc2ccccc2CC1C(=O)Nc1ccc(OC)cc1OC (stereo not given) | -13.8 | 3308 | 1.3 | 17.5 | 11.3 | 20.1 | -17.7
O=C(COc1ccc(F)cc1)c1ccc2c(c1)CCCC2 | -6.1 | 3251 | 1.0 | 13.4 | 11.3 | 20.2 | -65.0
CC1CCCCC1NC(=O)COC(=O)c1ccc([N+](=O)[O-])o1 (stereo not given) | · | 4195 | 3.7 | 22.6 | 12.3 | 18.1 | -14.4
CCN(CC)c1ccc(C2C(C(C)=O)C(=O)CC(C)(O)C2C(C)=O)cc1 (stereo not given) | -4.2 | 2398 | 4.1 | 8.1 | 8.1 | -0.9 | -6.0
COc1cccc(NC(=O)c2cc(-c3ccco3)nc3ccccc23)c1 | -6.3 | 4344 | 0.9 | -1.3 | -4.1 | -2.2 | -14.0
CC(=O)c1ccc(NC(=O)NNS(=O)(=O)c2ccc([N+](=O)[O-])cc2)cc1 | -18.1 | · | 4.1 | 4.0 | 2.0 | 2.6 | -8.7
COc1ccc(NC(=S)NCCCN2CCN(C3CCCCC3)CC2)cc1 | 0.3 | 9571 | 4.1 | 4.7 | 1.0 | 6.3 | -13.1
CNC(=O)c1c(C)nc(SCC(=O)NCc2ccc(OC)cc2)c(C#N)c1-c1ccco1 | -0.8 | 4583 | 9.8 | 15.5 | 6.9 | -6.7 | -15.9
CCOC(=O)C1=CNS(=O)(=O)NC1c1cccc(O)c1 (stereo not given) | · | 3723 | -1.7 | -0.5 | -0.8 | 0.5 | -10.5
O=S(=O)(c1ccc2c(c1)C(=NO)c1cc(S(=O)(=O)N3CCCCC3)ccc1-2)N1CCCCC1 | 94.9* | 8957 | 3.2 | -5.2 | -0.6 | -8.7 | -3.0
O=C(Nc1ccc(F)cc1)Nc1nnc(-c2ccccc2)o1 | 3.0 | 2117 | 0.3 | 12.8 | 0.6 | -2.7 | -9.1
O=C(NCc1ccc(F)cc1)c1ccc(CS(=O)(=O)c2ccc(Br)cc2)o1 | 3.3 | 4332 | -1.1 | 10.0 | 4.5 | -2.4 | 7.3
C=CCn1c(SCCOc2ccccc2)nnc1C(C)NC(=O)c1ccccc1 (stereo not given) | 1.2 | 6043 | -0.9 | 1.0 | 16.2 | 2.9 | -21.1
CCOc1ccc2nc(/N=C/c3nc(-c4ccccc4)oc3O)sc2c1 | 10.6 | 2037 | · | · | · | · | -13.6
O=S(=O)(Nc1ncnc2sc3c(c12)CCC3)c1cc(F)ccc1F | 16.5 | 3560 | 12.3 | -0.9 | 3.5 | -2.3 | -18.7
CN(c1ccc(C(=O)N2CCCCC2)cc1)S(C)(=O)=O | -3.2 | 6015 | -3.9 | -2.0 | -4.8 | -4.2 | -0.6
Cc1cc([N+](=O)[O-])nn1CCCC(=O)Nc1sc2c(c1C(N)=O)CCCC2 | 3.3 | 2052 | 14.2 | -4.3 | 4.3 | -0.1 | -15.7
CC1CCN(S(=O)(=O)c2ccc3c(c2)CCN3C(=O)CCC(=O)O)CC1 | -9.0 | 21818* | -0.5 | 2.7 | 3.7 | 0.7 | -22.7
N#CCC(=O)NNC(=S)Nc1ccccc1C(F)(F)F | 3.0 | 4158 | 4.3 | 15.8 | 10.3 | 9.8 | 2.9
CC(C)CC(=O)NC(=S)Nc1ccc(S(=O)(=O)N2CCN(C)CC2)cc1 | 1.7 | 1876 | 2.9 | 2.2 | 5.2 | 85.9* | -61.4
CCN(CC)C(=O)CSc1nnc(-c2ccccc2)n1-c1ccccc1 | 1.6 | 4741 | 1.4 | · | · | 6.7 | -6.9
CC1CCCN(CCCNC(=O)c2cc3c(s2)-c2ccccc2OC3)C1 (stereo not given) | 14.9 | · | -1.6 | 17.6 | 9.5 | 3.8 | -22.5
CCOc1ccc(NS(=O)(=O)c2cc(NC(=O)CCC(=O)c3cccs3)ccc2Cl)cc1 | -11.5 | 2346 | · | · | · | · | -7.7
COc1ccccc1CNC(=O)C(=O)NCC1OCCN1S(=O)(=O)c1cccs1 (stereo not given) | 6.2 | 5671 | 0.7 | 0.9 | 15.4 | 7.2 | -10.3
Cc1oc(-c2cccs2)nc1CNC[C@H]1O[C@@H](n2cnc3c(N)ncnc32)[C@H](O)[C@@H]1O | · | 3831 | 2.1 | -7.0 | 2.9 | -1.7 | -8.3

Molecules above that contain a CF3 group (two):
SMILES | BJeLR viability | Autofluor counter | Sa RN4220 lethal | Mtb hypoxia inh | Mtb hypoxia inh growth | ugtP null kill | PrP 5UTR inh
O=C(N/C=N/OCc1ccc(Cl)cc1Cl)NOCc1ncc(C(F)(F)F)cc1Cl | 5.4 | 2861 | -19.6 | 12.6 | 12.7 | -35.5 | -77.3
N#CCC(=O)NNC(=S)Nc1ccccc1C(F)(F)F | 3.0 | 4158 | 4.3 | 15.8 | 10.3 | 9.8 | 2.9

Compounds as they come; about 4.1% have a hit in one of these screens.
